High-throughput results: PubChem BioAssay, National Center for Advancing Translational Sciences (NCATS)
VDR inhibitor: blocks the human vitamin D receptor | P11473 | VDR-SRC2-3 peptide fluorescence polarization, 2 h | Potency, µM, for inactives: max response, negative = inhibition, most hits filed as inhibitors | actives 0.93% (n = 400,000); active means well fitted inhibition curve with a large enough effect; inconclusive means small, poorly fitted or top-dose-only effect, or another doubt; inactive means no such curve, though single readings can be large or run the other way; further: series mostly up to about 120 µM
Target sequence (P11473 whole entry, looked up): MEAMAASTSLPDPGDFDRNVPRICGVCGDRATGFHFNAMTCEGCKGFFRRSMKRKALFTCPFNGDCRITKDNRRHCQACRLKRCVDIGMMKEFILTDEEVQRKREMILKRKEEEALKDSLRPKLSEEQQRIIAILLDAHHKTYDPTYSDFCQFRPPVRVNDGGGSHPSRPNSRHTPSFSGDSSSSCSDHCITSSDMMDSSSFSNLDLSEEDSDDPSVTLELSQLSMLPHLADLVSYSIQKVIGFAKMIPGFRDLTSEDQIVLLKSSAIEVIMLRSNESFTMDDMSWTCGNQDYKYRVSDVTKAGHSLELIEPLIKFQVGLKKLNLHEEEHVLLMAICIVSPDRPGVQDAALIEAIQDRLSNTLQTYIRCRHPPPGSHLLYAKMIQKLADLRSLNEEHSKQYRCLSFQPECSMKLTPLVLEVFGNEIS
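Reagent solutions, kept cold and dark, are dispensed first; compounds are then pinned in at 23 nl, plates briefly spun, and incubated 2 h at ambient temperature. Inhibition of VDR–SRC2-3 peptide binding is read by fluorescence polarization.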
* marks the source's active call; other numbers are inactive results; ? = inconclusive; & = joins results of further samples; [ ] = another dose, or the depositor's remark. On the % scale 0 is the no-effect control and ±100 the full control effect; potency means the concentration at half of the fitted maximal effect.

VDR inhibitor,SMILES
-15.8%,O=C(O)c1ccc(C2Nc3ccccc3C(=O)N2Cc2ccccc2)cc1 (stereo not drawn)
11.0%,O=C(Nc1ccc2nc3n(c(=O)c2c1)CCCCC3)c1ccccc1[N+](=O)[O-]
4.7%,Cc1nc2sc(C)c(C)c2c(=O)[nH]1
12.9%,Oc1c(C(c2ccccc2)N2CCOCC2)sc2nc(-c3ccco3)nn12 (stereo not drawn)
-4.5%,O=C1OC(C(=O)Nc2cccc(Br)c2)Cc2ccccc21 (stereo not drawn)
0.7%,CCOc1ccc(OC(=O)c2cn(-c3ccc(C)cc3)c(=O)c3ccccc23)cc1
-3.0%,COc1ccc(/C(C)=N\NS(=O)(=O)c2ccccc2)cc1OC
?,COc1nccnc1NS(=O)(=O)c1ccc(NC(=S)NC(=O)c2ccc(F)c(F)c2)cc1
-6.8%,O=C(O)CCCC/C=C\C[C@@H](O)/C=C/C=C/C=C\[C@@H](O)CCCC(=O)O
-5.8%,Cc1cc(C)n(CCNC(=O)C2CCC(=O)N(CC3CCCCC3)C2)n1 (stereo not drawn)
3.1%,O=c1c2cc3c(cc2[nH]c(=S)n1Cc1ccco1)OCO3
23.8%,CCn1c(COc2ccc(Cl)cc2)nnc1SCc1nc2ccccc2[nH]1

4 of the compounds above, as tab-separated lines:
SMILES	VDR inhibitor
Cc1nc2sc(C)c(C)c2c(=O)[nH]1	4.7%
Oc1c(C(c2ccccc2)N2CCOCC2)sc2nc(-c3ccco3)nn12 (stereo not drawn)	12.9%
O=C1OC(C(=O)Nc2cccc(Br)c2)Cc2ccccc21 (stereo not drawn)	-4.5%
CCOc1ccc(OC(=O)c2cn(-c3ccc(C)cc3)c(=O)c3ccccc23)cc1	0.7%

Remaining list, next part
VDR inhibitor,SMILES
-10.2%,Cc1nc2ccccn2c1C(=O)CSc1cccc(Cl)c1
-5.3%,COc1ccc(N2C(=O)CC(N3CCC(C(N)=O)CC3)C2=O)cc1 (stereo not drawn)
7.5%&-12.9%,Cc1ccc(C(C)C)c2oc(=O)cc(-c3ccc(-c4ccc(C(F)(F)F)cc4)cc3)c12
-2.8%,CCOc1ccc2oc(C(=O)OCC(=O)N3CC(C)OC(C)C3)c(C)c2c1 (stereo not drawn)
-18.1%,O=C1CC[C@@H]2C[C@@]3(C[C@@H]4CCN1[C@H]24)Nc1cc([N+](=O)[O-])ccc1NC3=NCc1ccccc1
-2.4%,COc1ccc(S(=O)(=O)NN=C2CCCC2)cc1
-0.9%,COc1ccccc1-n1cnc2cc(NCc3ccco3)ccc21
8.6%,Cc1ccn2c(C(=O)N/N=C\c3ccccc3[N+](=O)[O-])c(C)nc2c1
3.8%,CC(C)C[C@@H](C(=O)NC1CCN(Cc2ccccc2)CC1)N1C(=O)N2CCc3c([nH]c4ccccc34)[C@@]2(C)C1=O
-7.8%,O=C(CCCN1C(=O)/C(=C/c2cccc(Br)c2)SC1=S)NCCCN1CCOCC1
8.3%,CN1CCCN(Cc2nc(-c3ccc(Cl)cc3)no2)CC1
-5.8%&1.8%,C=Cc1ccc(Cn2nc(-c3ccc(C)cc3)ccc2=O)cc1

(more compounds)
VDR inhibitor,SMILES
-14.4%,COc1ccc(N2CC(NS(=O)(=O)c3cccnc3)CC2=O)cc1OC (stereo not drawn)
-11.0%,CCC(C)Oc1nc(C)cc(C)c1S(=O)(=O)c1ccccc1C (stereo not drawn)
12.6%,CN(CC(=O)NCc1ccccc1Cl)S(=O)(=O)c1cccs1
6.2%,CC(=O)C(Cc1ccccc1)NC(=O)CN1CCN(Cc2ccccc2)CC1 (stereo not drawn)
-6.8%,Cc1nn2c3c(cnc2c1-c1ccc(Cl)cc1)C(=O)CC(c1ccc(C(C)C)cc1)C3 (stereo not drawn)
0.9%,O=C(NCCN1CCN(C(=O)c2cccs2)CC1)c1cccs1
9.9%,COc1ccc(C2CC(c3cccs3)=NN2c2ccc(F)cc2)cc1OC (stereo not drawn)
11.9%,CCOC(=O)c1[nH]c(C)c(CCC(=O)NCc2ccc(C)cc2)c1C
-12.7%,COc1ccc(/C=N/n2c(C)nc3c([nH]c4ccccc43)c2=O)cc1CN1CCCC(C)(C)C1
10.0%,O=c1c2ccccc2ccc2ccc(P(=O)(O)O)cc12
11.6%,O=C(Nc1ccc2c(c1)N(C1CCCC1)C(=O)c1ccccc1S2)c1ccccc1
-8.9%,CN(C)C(=O)c1ccc(-c2n[nH]c(=O)c3ccccc23)cc1

(continued)
VDR inhibitor,SMILES
-7.3%,CCOC(=O)C1=C(COC(=O)c2cccc(N(C)C)c2)NC(=O)NC1C (stereo not drawn)
-0.3%,CNC(=O)NC(=O)COC(=O)CCCSc1nc2ccccc2s1
-10.4%,CCCc1nn2c(=O)cc(CSCC(=O)Nc3nnc(CC)s3)nc2s1
-9.4%,CON/C=C(\C=Nc1ccc(C(F)(F)F)cc1)c1ncc(C(F)(F)F)cc1Cl
?,c1ccc(COc2nsnc2N2CCOCC2)cc1
-7.9%,COc1cc(C2=NOC(C(=O)N3CCCCCC3)C2)cc(OC)c1OC (stereo not drawn)
18.3%,Cc1ccc(N/C=C2/Sc3ccccc3NC2=O)cc1
11.5%,COc1cccc(Cn2nnc(C(=O)Nc3ccc(C)cc3)c2N)c1
-5.7%,COC(=O)c1oc2ccc(Br)cc2c1NC(=O)CCCN1C(=O)c2ccccc2C1=O
4.0%,CC1(C)C2CCC1(C)C(OC(=O)CC(=O)O)C2 (stereo not drawn)
-11.0%,Cc1cccc2cc(CN(CCN3CCOCC3)C(=O)Nc3ccccc3F)c(=O)[nH]c12
6.4%,COc1ccc2c(c1)-c1c(sn(-c3ccccc3)c1=S)C(C)(C)N2

Next compounds follow:
VDR inhibitor,SMILES
-13.1%,O=C(CSc1nnc(-c2ccc(Br)cc2)n1CCc1ccccc1)NC1CCS(=O)(=O)C1 (stereo not drawn)
-8.5%,Cn1c(N)c(C(=O)COC(=O)CNC(=O)c2ccc(Cl)cc2Cl)c(=O)n(C)c1=O
-13.7%,O=C(c1ccc(OC2CCN(C(=O)C3CC3)CC2)cc1)N(CCO)Cc1ccccc1
-5.8%,Cc1nn(C)cc1CNC(=O)C1(C)CC1(Cl)Cl (stereo not drawn)
10.3%,CC(C)CC1NC(=O)N(CC(=O)N2CCCc3ccccc32)C1=O (stereo not drawn)
8.0%,COC(=O)C1Cc2c([nH]c3ccccc23)CN1 (stereo not drawn)
-0.1%,CC(=O)O/C(=C\c1cn(C(C)=O)c2ccccc12)C(=O)O
10.6%,O=C(c1ccc2c(c1)OCCO2)N(Cc1cccnc1)c1nc2ccc(Cl)cc2s1
10.3%,COc1ccc2c(c1)C(C1=C(O)CC(C)(C)CC1=O)C1=C(CC(C)(C)CC1=O)O2 (stereo not drawn)
-12.9%,O=C(Nc1ccccc1Br)C1CCN(C(=O)Cc2ccccc2)CC1
25.3%,CCn1c(=O)c(=O)[nH]c2cc(C(=O)N(C)Cc3ccc(OC)c(F)c3)ccc21
-5.0%,CC(=O)N1CCC(=NNc2ccc(S(=O)(=O)N3CCOCC3)cc2[N+](=O)[O-])CC1

A different layout for part of the listing above.
Molecule | VDR inhibitor
Cc1nn(C)cc1CNC(=O)C1(C)CC1(Cl)Cl (stereo not drawn) | -5.8%
CC(C)CC1NC(=O)N(CC(=O)N2CCCc3ccccc32)C1=O (stereo not drawn) | 10.3%
COC(=O)C1Cc2c([nH]c3ccccc23)CN1 (stereo not drawn) | 8.0%
CC(=O)O/C(=C\c1cn(C(C)=O)c2ccccc12)C(=O)O | -0.1%
O=C(c1ccc2c(c1)OCCO2)N(Cc1cccnc1)c1nc2ccc(Cl)cc2s1 | 10.6%

Further results follow.
VDR inhibitor,SMILES
-20.8%,N#Cc1nc(-c2ccccc2F)oc1NCCc1ccccc1
-24.4%,CCOC(=O)C(=O)NCc1ccc(/C=C2/N=C(C)C(C(=O)OCC)=C2O)o1
7.4%,CC(OC(=O)/C=C/c1ccccc1)C(=O)NC1CCCCC1C (stereo not drawn)
1.0%,CC1(C)Nc2ccccc2N(CC(=O)N2CCCCC2)C1=O
-6.4%,O=C(COc1ccc(Br)cc1)NCCCNC(=O)c1cnccn1
7.2%,Cc1ccc(NC(=O)/C(C#N)=C/c2cccs2)c(C)c1
?,CCCCC(=O)NC(c1ccc(C(C)C)cc1)c1ccc2cccnc2c1O (stereo not drawn)
-20.1%,CCOC(=O)CCc1c(C(=O)OCC)[nH]c(CC)c1C(=O)OCc1ccccc1
7.2%,CCC(C)(C)n1nnnc1C(c1cc2cc(C)ccc2[nH]c1=O)N1CCCc2ccccc21 (stereo not drawn)
-2.2%,COC(=O)c1ccc(C(=O)OC)c(=O)[nH]1
13.5%,Cc1cc([N+](=O)[O-])nn1CCCC(=O)NC(C)c1ccccc1 (stereo not drawn)
0.9%,Cc1oncc1-c1csc(-c2ccccc2)n1

(list continues)
VDR inhibitor,SMILES
16.8%,O=C(O)c1ccc(CSc2nnc(-c3cccnc3)n2-c2ccc(Br)cc2)cc1
7.5%,COc1ccc(Nc2oc(-c3ccc(COc4ccc(OC)cc4)o3)nc2C#N)cc1
-10.0%,O=C(COC(=O)/C=C/c1cccc(Cl)c1)NCCc1ccc(Cl)cc1Cl
-23.0%,O=C(Nc1ccc(S(=O)(=O)Nc2nccs2)cc1)c1ccc(N2C(=O)c3ccccc3C2=O)cc1
-17.5%,CCOc1ncccc1C(=O)N1CCN(S(=O)(=O)c2cccs2)CC1
-4.4%,COc1ccc(C2C3=C(CCCC3=O)NC3=C2C(=O)c2ccccc23)cc1 (stereo not drawn)
-6.7%,Cc1ccccc1C(=O)N1CCC(C(=O)Nc2ccc(F)cc2)CC1
-13.5%,Cc1noc(C)c1C(=O)OCC(=O)NC1CCCCC1C (stereo not drawn)
-18.6%,COc1cccc(N2CC(O)=C(c3nc4ccccc4c(=O)[nH]3)C2=N)c1
31.6%[activator],CCOc1cccc(OCCNC2CCCC2)c1
-14.6%,CCNS(=O)(=O)c1cc(-c2nnc(Nc3cccc(C(F)(F)F)c3)c3ccccc23)ccc1C
3.0%,Cc1ccc(C(=O)NCC(C)(C)O)cc1

Later entries:
VDR inhibitor,SMILES
16.1%,CCOc1cccc2cc(C(=O)NCc3ccc(OC)cc3)c(=N)oc12
5.4%,O=C(N/C(=C/c1cccs1)c1nc2ccccc2[nH]1)c1ccccc1
-16.8%,C=CCn1c(C)c(C(C)=O)c(N2CCN(c3ccccc3)CC2)nc1=S
5.4%,Cc1cccc(Nc2nnc(SC/C(O)=C(\C#N)c3nc4ccccc4[nH]3)s2)c1
2.6%,Cc1cccc(-c2nnc(SCC(=O)NCc3ccc4c(c3)OCO4)n2C)c1
7.8%,CC(C)C[C@H](NC(=O)c1nc[nH]c1C(=O)NCC(=O)OCc1ccccc1)C(=O)OC(C)(C)C
-5.2%,COC(=O)C1C(c2ccc(Cl)cc2)NC(c2ccc(Cl)cc2)C(C(=O)OC)S1(=O)=O (stereo not drawn)
23.3%,N#Cc1ccc(C(=O)Nc2ccc3c(c2)N(C2CCCC2)C(=O)c2ccccc2S3)cc1
-12.1%,O=[N+]([O-])c1cccc(-c2cc(-c3cc(Br)ccc3O)[nH]n2)c1
-22.2%,Fc1ccc(-c2csc(-c3ccccn3)n2)cc1F
11.8%,Cc1cc(C)cc(NC(=O)CN(Cc2ccccc2)S(C)(=O)=O)c1
-5.5%,CCOC(=O)Cc1csc(NC(=O)NC2(C(F)(F)F)Oc3cc(Cl)c(Cl)cc3O2)n1

Remaining list, next part.
VDR inhibitor,SMILES
-8.3%,COCCSc1ncnc2c1oc1nc3c(cc12)COC(C)(C)C3
5.1%,CC1=C(C(=O)N(C)C)C(c2ccc(N3CCOCC3)cc2)NC(=O)N1 (stereo not drawn)
9.2%,O=C(CCNc1n[nH]c(=O)[nH]c1=O)N/N=C\c1cccc(OCc2ccccc2)c1
0.8%,CC(=O)Oc1ccc2nc(/C=C/c3ccc(C=O)cc3)oc(=O)c2c1
-11.2%,COc1cccc(C(=O)NCCN2CCOCC2)c1
-10.4%,Cc1cc(Oc2cc(N)cc([N+](=O)[O-])c2)ccc1Cl
-1.0%,CCOc1ccccc1NC(=O)C1Cc2ccccc2CN1S(C)(=O)=O (stereo not drawn)
-25.5%,COCCn1c(-c2cccs2)nc2nc3ccccc3nc21
-4.3%,Cc1ccc(C(=O)CCC(=O)NCc2ccccc2)cc1
7.6%,O=C(Oc1cccc(NC2=NS(=O)(=O)c3ccccc32)c1)c1cccnc1
8.8%,O=c1[nH]c2ccc(F)cc2[nH]c1=O
-4.1%,COc1cc(C(=O)N(CCCO)Cc2cc3ccc(C)c(C)c3[nH]c2=O)cc(OC)c1OC

The results go on:
VDR inhibitor,SMILES
-8.4%,CCc1ccc(NC(=O)C2CCN(c3ncnc4c3nc3n4CCCCC3)CC2)cc1
-27.0%,CCOC(=O)/C(C(=O)Nc1ccccc1Br)=C1/NC(C)(C)Cc2ccccc21
?,NS(=O)(=O)c1ccc(CNC(=O)c2cnccn2)cc1
-12.3%,CC(=O)c1sc(N/N=C\c2ccc(Br)cc2)nc1C
1.6%,CC(=O)c1ccc(N2CCN(C(=O)CN(C)S(=O)(=O)c3cnc[nH]3)CC2)cc1
-10.7%&-11.9%,COc1ccc(NC(=O)CC2C(=O)N(c3ccc(OC)cc3)C(=O)N2Cc2ccc(OC)c(OC)c2)cc1 (stereo not drawn)
21.9%,O=c1c2[nH]c3ccc(F)cc3c2ncn1CCCN1CCOCC1
6.5%,COC(=O)CC1[C@@]2(C)C[C@]34OC5(C)OC6(C7CC(=O)OC(c8ccoc8)[C@]7(C)CCC6(O5)[C@]13C)C(OC(C)=O)[C@]4(OC(C)=O)C2OC(C)=O (stereo partly drawn)
?,COc1ccc(C)cc1N(CC(=O)N/N=C/c1ccccc1C(=O)O)S(=O)(=O)c1ccccc1
4.3%,COc1ccc(CN2CCC(CO)(Cc3ccccc3)CC2)cc1Cn1cccn1
-6.5%,CC(Oc1ccccc1)C(=O)Nc1cc(Cl)ccc1-n1cncn1 (stereo not drawn)
-2.8%,COc1ccc(OC)c(N(CC(=O)NCCSCc2ccco2)S(=O)(=O)c2ccccc2)c1
7.9%,Cc1ccc(C)c(NC(=O)CCn2nc(C)cc2C)c1

A portion of the library (hit frequency here may not be typical).
